Source: PubChem BioAssay (Fisher Drug Discovery Resource Center)
NPYLR7 agonist: activates Aedes aegypti NPYLR7 receptor; HEK293T NPYLR7/Galpha15, GCaMP6s calcium fluorescence; AID 1259423; activation, % at 10 µM; 270,000 compounds, 0.15% hits; in the data active = activation above about 40%;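 also: 0% = vehicle and 100% = reference agonist at the receptor; some compounds past the cut are filed as inactive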
NPYLR7 agonist max-min: further read-out of NPYLR7 agonist, marked with its call; activation, %; measured here: Max-Min RFU normalised activation; some inactives read as strong as hits;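 span of the calcium signal over five minutes; 0% = vehicle and 100% = native peptide agonist; compound fluorescence can raise it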
The depositor's hits bear a star; & = joins results of further samples. Only part of the results is shown; count on the stated rates, not on these rows.

SMILES | NPYLR7 agonist | NPYLR7 agonist max-min
CN(C)S(=O)(=O)c1ccc(Cn2cc(C(=O)NCc3ccc4c(c3)OCO4)sc2=O)cc1 | 10 | 4
COc1cc(-c2nc(C=Nc3cccc(Cl)c3C)c(O)o2)cc(OC)c1OC | 0 | -7
Cc1ccc(-n2c(SCc3ccccc3)nnc2C(C)NC(=O)Nc2ccc(Cl)cc2)cc1 (stereo not drawn) | 13 | 20
CN(Cc1ccccc1)C(=O)[C@@H]1Cc2nc[nH]c2CN1Cc1cc2ccccc2o1 | -7 | -16
CC(=O)NCCNC(=O)C1(C)CCN1Cc1ccc(-c2ccccn2)cc1 (stereo not drawn) | 6 | 0
CC(=O)CSc1nc(-c2cccs2)cc(C(F)(F)F)c1C#N | -3 | -8
C=CCCC(CN(C)Cc1cccnc1)Oc1ccnc2ccccc12 (stereo not drawn) | 1 | 1
CCc1nc2ccc(C(=O)N3CCN(C(C)=O)CC3)cn2c1N(CC)C(=O)CCC1CCCC1 | 18 | 9
CCc1cc(=O)n2nc(N(Cc3cccc(C)c3)Cc3ccco3)sc2n1 | -5 | 1
COCCNCC(=O)NCC(=O)Nc1ccc(OC)cc1 | 30 | 36
Cc1ccc(NC(=O)C2CC(=O)NC3=C2C(=O)CC(c2ccco2)C3)cc1 (stereo not drawn) | -2 | -7
CN(Cc1cccnc1)Cc1cn(Cc2ccccc2)nc1-c1ccc2c(c1)OCO2 | -7 | -8
O=C(c1ccc(CSc2ncccn2)o1)N1C[C@H]2CC=CC[C@H]2C1 | -3 | -3
CCN(CC)c1ccc2cc(-c3nnc(Nc4cccc5ccccc45)s3)c(=O)oc2c1 | 8 | 5
O=C(CN1CCOc2ccccc2C1)NCCn1nnc2ccccc21 | 16 | 5
Cc1cccnc1NS(=O)(=O)Cc1cccc(F)c1 | 0&-8 | -2
CC(C)=CCN1CCN(Cc2cn(C)nc2C)CC1CCO (stereo not drawn) | -3 | -8
Cc1cccc(C(=O)N2C(C(=O)NCC3CCCO3)COC23CCN(C(=O)c2ccccc2F)CC3)c1 (stereo not drawn) | 3 | 4
Cc1ccc(-n2c(=O)[nH]c3c(C(=O)Nc4cc(C)ccc4C)cn(C)c3c2=O)cc1 | 6 | 4
CCc1cccc2sc(Cl)nc12 | -17 | -18
Cc1ccc(-c2cc3c(=O)n(CC(=O)NCCc4ccccc4)ncn3n2)cc1C | -7 | -15
CC(C)Cc1nc(N)sc1C(=O)OCc1ccc(C(N)=O)cc1 | 1 | -1
N#Cc1ccc(CN2CCN(Cc3cc4c(cc3Br)OCCO4)CC2)cc1 | 6 | 10
Nc1cc(-c2ccc(Cl)cc2)nn1-c1ccc(C(=O)NCc2ccncc2)cc1 | 1 | 0

Record cards (already shown). Values in the order: NPYLR7 agonist	NPYLR7 agonist max-min
Profile of `Nc1cc(-c2ccc(Cl)cc2)nn1-c1ccc(C(=O)NCc2ccncc2)cc1` : 1	0
Profile of `Cc1cccc(C(=O)N2C(C(=O)NCC3CCCO3)COC23CCN(C(=O)c2ccccc2F)CC3)c1` (stereo not drawn) : 3	4
Profile of `O=C(c1ccc(CSc2ncccn2)o1)N1C[C@H]2CC=CC[C@H]2C1` : -3	-3
Profile of `CCc1cccc2sc(Cl)nc12` : -17	-18
Profile of `Cc1ccc(-c2cc3c(=O)n(CC(=O)NCCc4ccccc4)ncn3n2)cc1C` : -7	-15

Laid out differently: results already given
Order of results: NPYLR7 agonist | NPYLR7 agonist max-min
- Cc1ccc(-c2cc3c(=O)n(CC(=O)NCCc4ccccc4)ncn3n2)cc1C
→ -7 | -15
- CCN(CC)c1ccc2cc(-c3nnc(Nc4cccc5ccccc45)s3)c(=O)oc2c1
→ 8 | 5
- Cc1cccc(C(=O)N2C(C(=O)NCC3CCCO3)COC23CCN(C(=O)c2ccccc2F)CC3)c1 (stereo not drawn)
→ 3 | 4
- CC(C)Cc1nc(N)sc1C(=O)OCc1ccc(C(N)=O)cc1
→ 1 | -1
- Nc1cc(-c2ccc(Cl)cc2)nn1-c1ccc(C(=O)NCc2ccncc2)cc1
→ 1 | 0

Other compounds
SMILES | NPYLR7 agonist | NPYLR7 agonist max-min
O=C1/C(=C/c2ccco2)SC(=S)N1CCc1ccccc1 | 0 | 0
O=C1CCCN1C1CCCN(CCS(=O)(=O)c2ccccc2)C1 (stereo not drawn) | 4 | 4
O=C(CCCc1ccccc1)Nc1ccnn1C1CCN(C(=O)c2cncs2)CC1 | 20 | 6
O=C(NCCNC(=O)[C@H]1CCCN1C(=O)c1ccc(Cl)cc1Cl)c1ccc(F)cc1 | 4 | 14
COc1ccc(C)cc1S(=O)(=O)Nc1cccc([N+](=O)[O-])c1 | 4 | 1
CCOC(=O)C1(Cc2ccc(F)cc2F)CCCN(C(=O)C2=CC(=O)CC(C)(C)O2)C1 (stereo not drawn) | 5 | 3
CN(C)Cc1cccc(CN(C)c2cc(N(C)C)ncn2)c1 | -3 | 7
CCOC(=O)c1cc(-c2ccc(N3CCN(C(=O)c4cccnc4SCC)CC3)cc2)n(-c2cccc(F)c2)n1 | 24 | 13
COc1ccc(NC(C)=O)cc1NC(=O)CN1CCCC1c1cccn1C (stereo not drawn) | -6 | -6
CC1CN(c2cc(Cl)nc(SCC(=O)N3CCN(c4ccc([N+](=O)[O-])cc4)CC3)n2)CCN1C(=O)c1ccc(F)cc1 (stereo not drawn) | 16 | 18
Cc1nn(C2CCS(=O)(=O)C2)c(C)c1CN(C)C(=O)Cn1nnc(COc2ccccc2)n1 (stereo not drawn) | 1 | 3
O=C(Nc1cccc(-c2cccc(F)c2)c1)C1CCN(Cc2cccc3cnccc23)CC1 | 3 | -1
CC(C)c1cc(C2CCN(C(=O)[C@H]3CCCO3)CC2)[nH]n1 | 2 | 9
COc1ccc(C(=O)N2CCN(c3ccc(OC)cc3)C(=O)C2C)cc1 (stereo not drawn) | -10 | 1
O=C(NCCN1CCOCC1)c1cnn2c(C(F)(F)F)cc(-c3ccc(F)cc3)nc12 | -8 | -10
Cn1c(CSc2nc3ccc(Br)cc3[nH]2)nc2ccccc21 | -4 | 1
CCc1nc2n(n1)C(=O)C(C(c1ccccc1)N1CCN(c3ccccc3)CC1)S2 (stereo not drawn) | -3 | -7
[O-][n+]1ccccc1Oc1nnc(-c2ccc(F)cc2)c2ccccc12 | 1 | 35
COc1cccc(NC(=O)NCc2nnnn2C2CCCCC2)c1 | 5 | 1
Cc1n[nH]c(C)c1Cc1nc(CN2CCN(C)CC2)no1 | 2 | -2
CC(C)CN1CC(C(=O)Nc2ccc3c(c2)OCCCO3)CC1=O (stereo not drawn) | -1 | 0
O=C(CN1C(=O)CSC(c2ccc3c(c2)OCO3)c2c(-c3ccccc3)nn(-c3ccccc3Cl)c21)NCc1ccc(F)cc1 (stereo not drawn) | 4 | 7
CCCCC(=O)N(C)c1c(C)nc2ccc(C(=O)NCCc3ccccn3)cn12 | 7 | -6
O=C(CN1CCN(c2ccccn2)CC1)NCc1ccc(Cl)cc1 | 6 | 3
O=C1NCCCCC1N1CCN(C(=O)c2cc3ccccc3o2)CC1 (stereo not drawn) | -8 | -8
COc1cc2c(cc1-c1ccc(S(C)(=O)=O)cc1)OCC(C)(C)CC2CO (stereo not drawn) | 6 | 11
CC(C)CCn1c(CN2CCN(Cc3ccccc3)CC2)nc2c1c(=O)n(C)c(=O)n2C | 1 | 17
CN1CCCC2(CCN(c3ncccc3C(=O)O)C2)C1=O (stereo not drawn) | 7 | 7
CC(=O)c1cccc(-c2cc3c(n(C)c2=O)CCN(C(=O)c2ccc4[nH]c5c(c4c2)CCCC5)C3)c1 | 18 | 3
C#CCOc1cc(F)ccc1NC(=O)NCc1nnc2ccccn12 | 0 | -2
O=S(=O)(Oc1ccc2oc3ccccc3c2c1)c1ccc2c(c1)OCCO2 | -16 | -22
Cc1cc(C)c2oc(=O)n(C3CCN(C(=O)c4ccc(F)cc4)CC3)c2c1 | 3 | 0
CC(CNC(=O)c1cnon1)Oc1cccnc1 (stereo not drawn) | 24 | 11
CCCc1cc(=O)n2[nH]cc(-c3ccccc3)c2n1 | -1 | 9
Cc1ccc(CSc2nc(=O)n3ccc(C)cc3n2)cc1 | 3 | 2
COc1cc([N+](=O)[O-])ccc1NC(=S)NNC(=O)c1ccc(-n2cccc2)cc1 | -2 | -2
CONS(=O)(=O)c1ccc(C(=O)N(CCC(C)C)C2CC2)cc1 | 10 | 10
CCC(C)N(CC(=O)N1CCc2sccc2C1c1ccc(Cl)cc1)C(=O)c1cccs1 (stereo not drawn) | -7 | 6
CSc1ccc(CC(=O)N2CCCC(N(C)C)CC2)cc1 (stereo not drawn) | 3 | 7
O=C(c1cc(=O)c2ccccc2o1)N1CCN(c2ncnc3c2nnn3-c2cccc(F)c2)CC1 | -8 | -14
COCc1cc(N2CCN(C)CC2)nc(SCc2cccc(C(=O)NCC3CC3)c2)n1 | 13 | 8
CN(C(=O)CN1CCCC(C(=O)c2cc(F)ccc2F)C1)c1ccccc1 (stereo not drawn) | -1 | 2
COc1ccc(C(=O)N(c2ccccc2)c2ccc3ccccc3c2)cc1[N+](=O)[O-] | -6 | -11
CCC(CNC(=O)N1CCN(S(=O)(=O)c2ccc(Br)cc2)CC1)c1ccccc1 (stereo not drawn) | 4 | 4
Cc1ccc(CSCc2ccc(C)cc2)cc1 | 11 | 8
CCCc1ccc(Oc2cc(Cl)nc(N)n2)cc1 | 1 | 2
COC(=O)C1=C(C)N(C)C(C)=C(C(=O)OC)C1c1cc(OC)c(OC)c(OC)c1 | -4 | -4
COc1ccc(-c2nc3c(s2)CN(C(C(=O)O)c2c[nH]c4ccc(CO)cc24)CC3)cc1OC (stereo not drawn) | -1 | -6
Cc1cccc(Cn2c(CCc3ccccc3O)n[nH]c2=O)c1 | -1 | 7
CCOC(=O)C1(CC2CC2)CCN(Cc2cn[nH]c2-c2cccc(F)c2)CC1 | 9 | 2
N#CCn1nc2n(c(=O)c1=O)CCN2c1ccccc1 | 12 | 8
Cc1cccc(C(=O)Oc2cccc3cccnc23)c1 | 23 | 21
Cc1ccc(Cc2nc(N3CCCN(C(=O)C4C[C@H]4c4ccccc4)CC3)c3c(-c4cccnc4)noc3n2)cc1 (stereo partly drawn) | 20 | 6
CN(C)c1ccc(CN2CCN(c3ncnc4ccccc34)CC2)cn1 | -1 | 7
O=C(Cn1nnc(-c2cccs2)n1)NCCC1=CCCCC1 | 0 | -3
Cc1cc(NC(=O)CSc2ccc3ccccc3n2)n(C)n1 | 4 | 1
CC(Sc1ccc(Cl)c(C(F)(F)F)c1)C(=O)Nc1ccc(C(N)=O)cc1 (stereo not drawn) | 1 | -4
O=C(Cn1nc2c(c1NC(=O)CSCc1ccccc1)CSC2)NCC1CCCO1 (stereo not drawn) | -3 | 4
COc1cc(F)c(CN2CCCC2c2ccc(F)cc2)cc1OC (stereo not drawn) | -4 | -5
Cc1ccc2c(c1)CN(CC(=O)N1CCN(c3ccccc3)CC1C)CC(c1ccsc1)O2 (stereo not drawn) | -1 | -5
Continued:
SMILES | NPYLR7 agonist | NPYLR7 agonist max-min
Cc1ccc(C(=O)NCc2cccnc2N2CCOCC2)cn1 | 7 | 0
CO[C@H]1CN(C(C)C)C[C@@H]1Nc1ncc(C)c(N(C)C)n1 | 3 | 1
O=C(C1=COCCO1)N1CCN(c2nc3c(Cl)cccc3s2)CC1 | 0 | 0
C[C@H](C(=O)NCc1nccs1)N1Cc2ccc(-c3ccc(C#N)cc3)nc2C1=O | 9 | 17
CCn1nccc1NC(=O)c1cccc(S(C)(=O)=O)c1 | 11 | 10
O=C(O)CNC(=O)c1ccc(Br)o1 | -4 | -7
Cn1cc(NC(=O)N2CCOCC2)c2ccccc21 | 2 | -5
CCN(CC)C(=O)Oc1ccc2c(ccn2Cc2cccc(C(F)(F)F)c2)c1-c1ccc(OC)c(OC)c1 | 4 | 2

Four entries out of the list, sorted by count of non-hydrogen atoms, high to low.
SMILES | NPYLR7 agonist | NPYLR7 agonist max-min
CCN(CC)C(=O)Oc1ccc2c(ccn2Cc2cccc(C(F)(F)F)c2)c1-c1ccc(OC)c(OC)c1 | 4 | 2
O=C(C1=COCCO1)N1CCN(c2nc3c(Cl)cccc3s2)CC1 | 0 | 0
Cn1cc(NC(=O)N2CCOCC2)c2ccccc21 | 2 | -5
O=C(O)CNC(=O)c1ccc(Br)o1 | -4 | -7
